Screens as filed in PubChem.
HNF4A DNA FP: change in binding of human HNF4A to DNA, primary screen, biochemical, fluorescence polarization, FITC-DNA | Hepatocyte nuclear factor 4-alpha (Homo sapiens), P41235 | 1 h | activity change, % at 10 µM | 0.3% of 360,000 active | AID 1224865, 2016; in the data active means activity change above about 30%, passing the limit was not always enough;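 further: controls were the assay level and a saturating level of protein; the project sought stronger binding though the title names inhibitors; some compounds called inactive have numbers as strong as hits; positive values seem to mean higher polarization but the record does not say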
Target sequence (P41235 whole entry, looked up): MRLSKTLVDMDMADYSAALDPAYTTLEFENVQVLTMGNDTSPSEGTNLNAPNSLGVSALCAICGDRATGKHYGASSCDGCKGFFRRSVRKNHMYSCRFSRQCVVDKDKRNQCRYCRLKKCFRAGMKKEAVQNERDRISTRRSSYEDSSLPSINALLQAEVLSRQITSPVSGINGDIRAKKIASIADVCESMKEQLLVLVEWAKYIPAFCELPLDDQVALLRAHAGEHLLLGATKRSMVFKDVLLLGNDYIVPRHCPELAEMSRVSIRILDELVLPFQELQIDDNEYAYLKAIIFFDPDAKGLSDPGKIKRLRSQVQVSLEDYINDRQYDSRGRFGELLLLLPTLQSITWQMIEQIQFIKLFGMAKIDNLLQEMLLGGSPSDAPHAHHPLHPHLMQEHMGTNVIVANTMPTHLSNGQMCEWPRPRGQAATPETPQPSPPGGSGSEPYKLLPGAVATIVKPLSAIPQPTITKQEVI
Beta2AR agonist: beta2AR agonists driving receptor internalization, primary screen, cell-based, FAP fluorogen, flow cytometry. 0.43% of 340,000 active. response, % (no concentration beside the values). Am2.2-beta2AR cells; reference of the scale not given here. AID 504454, 2011. Beta-2 adrenergic receptor (Homo sapiens), P07550;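 active means response above a set limit, near 3 SD of response in nonfluorescent compounds, cut at about 42% in these data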;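 further: stock transfer was 100 nL into about 11 µL; a reference agonist was the positive control; negative values mostly stem from fluorescent compounds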
Target sequence (P07550 whole entry, looked up): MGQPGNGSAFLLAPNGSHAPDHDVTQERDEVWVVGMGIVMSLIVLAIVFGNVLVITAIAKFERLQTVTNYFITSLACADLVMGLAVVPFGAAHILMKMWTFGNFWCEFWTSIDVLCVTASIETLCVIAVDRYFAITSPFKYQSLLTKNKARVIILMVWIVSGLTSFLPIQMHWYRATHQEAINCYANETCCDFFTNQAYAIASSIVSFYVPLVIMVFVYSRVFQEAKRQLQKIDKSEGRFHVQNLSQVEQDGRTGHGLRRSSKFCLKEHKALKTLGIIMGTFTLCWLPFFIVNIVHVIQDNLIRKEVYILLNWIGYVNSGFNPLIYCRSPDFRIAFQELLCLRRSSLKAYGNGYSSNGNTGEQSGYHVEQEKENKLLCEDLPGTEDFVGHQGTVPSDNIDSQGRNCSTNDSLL
LANA-H2A inh: blockers of LANA interaction with H2A/H2B – biochemical, FP readout, HTS, primary screen. AID 2629, 2010. 0.6% of 320,000 active. inhibition, % (test concentration not listed). cell-free LANA-H2A/H2B peptide, fluorescence polarization; in the data active means inhibition mostly above about 10%, no sharp cut-off; inactive means mostly below about 6.7%;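 further: stock transfer was 7.5 nL into about 10 µL; 0% = median of vehicle wells and 100% = median of positive control wells; one replicate is shown; the record names a cut of 25% in any replicate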
UCH37 inh: inhibitors of human UCH37 deubiquitinase, primary screen, biochemical, Ub-AMC cleavage, fluorescence; inhibition, % (no concentration beside the values); 0.33% of 330,000 active; AID 588478, 2011; purified proteasome/UCH37; Ubiquitin carboxyl-terminal hydrolase isozyme L5 (Homo sapiens), Q9Y5K5;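 active means mean of two replicates above 20%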;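 further: 0% = compound-free wells with enzyme and 100% = wells lacking proteasome; stock transfer was 100 nL into about 20 µL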
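Assay system: Proteasome-bound UCH37. Buffer or medium: pH 7.4 Tris-HCl (50 mM) with ovalbumin, ATP-MgCl2, DTT. Incubation: 30 min preincubation with enzyme, 25 min cleavage at room temperature. Measured by: fluorescence, ex 355 nm, em 460 nm. Read-out basis: percent inhibition. Control set: wells without proteasome as full block, compound-free enzyme plus substrate as uninhibited.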
Ecoli growth: E. coli growth inhibition, primary screen, OD600; 0.21% of 330,000 active; Escherichia coli growth, 23 h; active compounds read low; OD600 absorbance (concentration not given with the values);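 active means OD600 absorbance below the run mean of sample wells minus 3.6 SD, in any replicate, cut at about 0.56 in these data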;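 further: stock transfer was 300 nL into about 60 µL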
A1 inh: caspase 3/7 activation in MEF A1-2A-BIM cells, primary screen, A1 inhibitor project, cell-based, luminescence, HTS; 0.066% of 330,000 active; caspase activation, % (concentration not given with the values); Caspase-Glo 3/7 luminescence, 3 h; percent of clofoctol response, vehicle zero; AID 2462, 2010;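 active means over half of replicate activation scores above 10%, or exactly half above 10 with the replicate mean above 10; inconclusive means replicate mean below 10 yet half the replicates above 10; inactive means over half of replicates below 10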;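 further: wells of about 30 µL received 50 nL stock; many hits fall short of the cut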
Vif TR-FRET: inhibitors of Vif binding to APOBEC3G peptide, primary screen, biochemical, TR-FRET, GST-Vif 1-94, biotin-A3G peptide, dose response retest (AID 1117319); Virion infectivity factor (Human immunodeficiency virus type 1 group M subtype B (isolate …; TR-FRET GST-Vif / biotin-A3G peptide binding; higher % means a stronger effect; test concentration not given here; strong numbers were not always called active; one-dose inhibition, %; IC50 in µM for titrated hits; 0.57% of 260,000 active;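 active means above the screen mean plus three standard deviations and confirmed in dose response; inconclusive means results disagree or hit not tested in dose response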;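 further: Vif residues 1-94 fused to GST binding biotinylated APOBEC3G peptide 110-148; 0% = full assay without inhibitor and 100% = GST in place of GST-Vif; retest series ran down from 100 µM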
The depositor's hits bear a star; u = inconclusive; x = no result given; & = joins results of further samples.

SMILES	HNF4A DNA FP	Beta2AR agonist	LANA-H2A inh	UCH37 inh	Ecoli growth	A1 inh	Vif TR-FRET
O=C(C1CN(S(=O)(=O)c2ccccc2)CCN1S(=O)(=O)c1ccccc1)N1CCCCCC1 (stereo not drawn)	-5.2	-8	-3.4	-5.9	0.74	-0.1	26%
CC1=C(C(N)=O)C(c2ccccc2)n2nc(-c3ccncc3)nc2N1 (stereo not drawn)	2.3	2	3.8	0.5	0.68	-0.6	27%
O=C(Cc1c[nH]c2ccccc12)OCC(=O)c1ccccc1	-2.1	18	-0.1	1.6	0.68	0.2	-3%
COc1ccc(C2Nc3ccccc3C(=O)N2Cc2ccco2)cc1COc1ccc(NC(C)=O)cc1 (stereo not drawn)	-0.2	-15	-6.6	-111	0.71	0.0	16%&4%
C#CCSc1nc(N)c2c(n1)OC(N)=C(C#N)C2c1cccnc1 (stereo not drawn)	0.4	12	1.1	x	x	0.6	18%
COc1ccc(NS(=O)(=O)c2cccs2)cc1S(=O)(=O)N1CCOCC1	4.2	-1	1.7	1.5	0.68	0.0	x
COc1ccc(S(=O)(=O)N2CCc3cc(OC)c(OC)cc3C2)cc1	2.8	1	-1.2	3.7	0.7	0.0	10%
COc1ccc(C2C(C#N)=C(N)N(c3ccccc3)C3=C2C(=O)CCC3)cc1Cn1cc([N+](=O)[O-])cn1 (stereo not drawn)	9.9	2	4.8	3.9	0.69	-0.3	u
CN(C(=O)COC(=O)c1cc(S(=O)(=O)N2CCCCC2)ccc1N1CCOCC1)C1CCS(=O)(=O)C1 (stereo not drawn)	1.2	-6	7.7	4.1	0.7	0.2	2%
CN1CCN(C=NC2=NN(c3cccc(C(F)(F)F)c3)CC2)CC1	8.0	-7	-14	13	0.72	0.0	u
CC1CC(C)CN(C(=O)COC(=O)c2ccc[nH]c2=O)C1 (stereo not drawn)	-0.3	3	3.6	4.7	0.77	0.1	1%
Cc1ccc(C)c(-n2c(CNc3ccc(F)cc3)nnc2SCC(N)=O)c1	-0.3	-4	-9.2	3.8	0.74	-0.2	5%
C[n+]1cn(Cc2cc(Cl)ccc2OC(F)F)c2ccccc21	-0.2	-1	3.5	2.5	0.68	0.7	-1%
O=Cc1cn(-c2ccc(F)cc2)c2ccccc12	-2.5	-15	-4.8	2.8	0.67	1.0	x
COc1ccccc1N1CCN(S(=O)(=O)c2c(C)[nH]c(=O)[nH]c2=O)CC1	0.3	6	0.6	-0.8	0.68	0.7	12%
Cc1cc(N)ncc1[N+](=O)[O-]	-2.4	10	x	8.1	0.64	x	-4%
COc1ccc(S(=O)(=O)N2CCCCC2)cc1-n1cnnn1	-2.6	-1	2.3	5.6	0.69	0.4	x
COc1ccccc1N1CCN(c2ccc(S(=O)(=O)N3CCN(C)CC3)cn2)CC1	3.3	10	5.8	0.7	0.62	0.2	3%
Cc1ccc(OCC(=O)NC2CCS(=O)(=O)C2)cc1 (stereo not drawn)	3.4	-8	-0.5	1.2	0.67	-0.2	6%
CCn1cc(C(=O)NCCC(=O)NCCO)c(=O)c2cc3c(cc21)OCO3	4.4	-6	-2.6	-2.1	0.65	0.2	-1%
COC(=O)c1ccc(Cn2nnc3c(=O)[nH]c(C4CCCN(S(=O)(=O)c5ccccc5)C4)nc32)cc1 (stereo not drawn)	2.5	30	2.2	2.8	0.7	1.0	-8%
CCc1ccc2[nH]c(=O)c(CN(Cc3ccc4c(c3)OCO4)Cc3nnnn3C3CCCC3)cc2c1	-2.0	-5	-0.1	-2.6	0.69	-0.4	7%
CS(=O)(=O)N(CC(=O)NCc1ccc2c(c1)OCO2)Cc1ccc(Cl)cc1	0.9	-1	4.1	1.6	0.79	-0.4	u
O=C(NCCO)c1cccc2c1-c1ccccc1C2=O	0.9	-1	3.5	1.2	0.68	0.9	19%
O=C(CCS(=O)(=O)c1ccccc1)Nc1nc2cc3c(cc2s1)OCCO3	27	2	0.5	0.9	0.69	-0.5	4%

Some of the entries above, set out differently:
Molecule,HNF4A DNA FP,Beta2AR agonist,LANA-H2A inh,UCH37 inh,Ecoli growth,A1 inh,Vif TR-FRET
COc1ccc(S(=O)(=O)N2CCCCC2)cc1-n1cnnn1,-2.6,-1,2.3,5.6,0.69,0.4,x
COc1ccccc1N1CCN(c2ccc(S(=O)(=O)N3CCN(C)CC3)cn2)CC1,3.3,10,5.8,0.7,0.62,0.2,3%
Cc1ccc(OCC(=O)NC2CCS(=O)(=O)C2)cc1 (stereo not drawn),3.4,-8,-0.5,1.2,0.67,-0.2,6%

(more compounds)
SMILES	HNF4A DNA FP	Beta2AR agonist	LANA-H2A inh	UCH37 inh	Ecoli growth	A1 inh	Vif TR-FRET
COc1ccc(-c2cc(C#N)nc(N3CCN(C)CC3)n2)cc1	3.3	-1	-2.0	-11	0.69	0.9	-7%
COc1ccc(OCC(O)CN2CCCCC2)cc1 (stereo not drawn)	-2.0	-6	4.1	-0.2	0.8	x	1%
Cc1noc(C)c1CSc1nnc(-c2ccccc2)o1	-1.5	-4	1.5	-0.8	0.68	0.7	2%
Cc1sc2ncnc(N3CCC(C(=O)Nc4sc5c(c4C(N)=O)CCC(C)C5)CC3)c2c1C (stereo not drawn)	-2.6	17	4.0	-6.6	0.7	-1.2	8%
Cc1ccc(C)c(N(CC(=O)N2CCCC2)S(C)(=O)=O)c1	-3.5	-3	5.2	x	x	-0.6	-7%
CC(=O)Nc1ccc(NC(=O)CCc2nc3sc4c(c3c(=O)[nH]2)CCCC4)cc1	1.8	-7	0.6	0.4	0.7	-0.4	-4%
COc1cccc(Cn2cnc3c(NS(=O)(=O)c4ccc(Cl)cc4)c(C)c(C)cc32)c1	-1.2	-2	2.3	-1.6	0.7	-0.2	-3%
O=C(O)c1cscn1	-0.5	-2	-4.3	0.4	0.7	-1.2	-4%
COc1ccc(/C=N/Nc2snc(SC)c2C#N)cc1OC	7.4	12	-0.5	x	x	-0.9	3%
CCCn1c(=O)c(/C(N)=N/O)nn(-c2cccc(C(F)(F)F)c2)c1=O	4.0	-6	-5.8	6.0	0.7	0.0	-1%
O=C(NCc1cccc2ccccc12)Nc1ccccc1	6.3	-3	12	2.9	0.72	0.1	x
COc1ccc(-c2cc(C(=O)Nc3ccc(C(N)=O)cc3)c3ccccc3n2)cc1OC	-0.1	15	1.8	-181	0.68	0.1	u
Cc1ccc2ccc(S(=O)(=O)NCc3ccccn3)cc2c1	-1.9	-4	0.3	1.2	0.67	1.0	x
COc1ccc(/C=C(/NC(=O)c2ccco2)C(=O)Nc2ccc(C(C)=O)cc2)cc1	3.5	-4	3.7	2.6	0.71	-0.4	x
COc1ccc(Cc2nc3ccc(C(=O)NCCc4ccncc4)cc3o2)cc1OC	-1.3	5	x	0.5	0.66	x	x
CCOC(=O)C(=O)Nc1ccccc1C(=O)NCc1ccccc1	3.1	5	1.2	-1.5	0.7	-0.2	-6%
NC(=S)NC(=O)/C=C/c1ccccc1	1.1	2	2.1	1.5	0.69	1.2	7%
NC(=S)N=Nc1ccc(NN=C(N)N)cc1	-2.3	1	7.0	7.1	x	-0.5	x
O=C(c1cc(COc2ccc(F)cc2F)on1)N1C[C@H]2CC[C@H]1C2	4.9	-10	-2.9	0.9	0.66	1.0	5%
Cc1c(NC(=O)c2ccccc2NS(=O)(=O)c2ccc(F)cc2)c(=O)n(-c2ccccc2)n1C	3.9	-5	3.4	1.7	0.68	0.7	12%
Cc1ccc(/C=C(\NC(=O)c2ccc(C)cc2)c2nc(=S)[nH][nH]2)cc1	2.2	5	2.8	-1.3	0.64	-0.3	8%
C=COCCNC(=S)Nc1ccccc1	-1.3	1	-4.1	1.1	0.66	0.1	-2%
Cc1ccc(S(=O)(=O)N2CCOCC2)cc1C(=O)N(C)CCOc1ccc(Cl)cc1	4.2	-5	-1.2	2.5	0.67	0.1	25%
Cc1nnc(SCC(=O)N2c3ccccc3CC2C)[nH]c1=O (stereo not drawn)	-1.2	-2	0.4	0.3	0.7	-0.2	6%
CC(=O)Nc1cccc(OCCCNC(=O)c2ccc(C(C)(C)C)cc2)c1	-0.3	6	-0.5	1.7	0.62	-0.2	-5%

Next records:
SMILES	HNF4A DNA FP	Beta2AR agonist	LANA-H2A inh	UCH37 inh	Ecoli growth	A1 inh	Vif TR-FRET
CC(=O)c1cc2c(cc1NC(=O)Cn1nc(-c3ccc(F)cc3)ccc1=O)OCO2	3.9	8	7.2	-3.9	0.69	-0.8	x
COC(=O)CN(C)C(=O)c1ccc(OC2CCN(S(=O)(=O)N(C)C)CC2)cc1	-0.3	5	1.8	1.0	0.66	-0.3	-4%
CC(C)NS(=O)(=O)c1ccc(CCC(=O)O)cc1	3.5	7	4.2	3.4	0.68	-0.4	3%
COc1ccc(-c2ccc(-c3nnc(-c4ccncc4)o3)cc2)cc1	x	x	x	-15	0.68	x	2%
COC(=O)C1=CN(Cc2ccc(OC)c(OC)c2)C=C(C(=O)OC)C1c1cccc(O)c1	-6.7	28	-5.8	x	x	0.3	3%
CCOCCNC(=O)c1ccc2c3c(cccc13)CC2	3.2	1	1.8	-52	0.71	-0.3	4%
O=C(NCCCNC(=O)c1ccc(Cl)cc1Cl)c1cnccn1	-2.2	-18	-0.5	0.1	0.67	-1.6	x
O=C(O)c1ccc(NCc2cccs2)cc1	-4.6	-10	-0.7	1.7	0.68	-2.4	-1%
CN(C)c1ccc(C=C2C=Cc3ccccc32)cc1	0.5	10	x	7.6	0.72	x	-5%
COc1cc(C(=O)Oc2cccnc2)cc(OC)c1OC	1.5	-2	-4.8	7.7	0.7	0.6	x
COC(=O)c1c(C)nc2c(c(SC)nn2-c2ccccc2)c1N	-3.6	14	-0.4	-3.8	0.72	0.3	16%
CC(Sc1nnc(C2CC2)n1C1CC1)C(=O)N(C)Cc1cccc(F)c1 (stereo not drawn)	-3.0	-4	-3.5	x	x	0.1	-1%
CN1CCN(c2ccccc2NC(=O)c2ccc(OCc3ccccc3)cc2)CC1	1.1	7	7.2	5.1	0.69	-0.5	-4%
COc1cccc(CC2(CO)CCCN(Cc3ccc(OC(F)F)cc3)C2)c1 (stereo not drawn)	4.4	0	-0.3	x	x	0.6	4%
COc1ccc(CNc2ccc(C)c(C)c2)c(OC)c1OC	2.1	7	-2.9	0.9	0.65	-1.6	0%
COc1cccc(-c2nc(SC)nc3sc(C(=O)NC(C)(C)C)c(N)c23)c1	3.1	-6	3.8	2.1	0.72	0.5	x
Cn1cnc2cc(NCc3ccccc3O)ccc21	-2.7	-8	-8.3	-2.1	0.68	-0.3	x
O=c1ccnc(Sc2ncccc2[N+](=O)[O-])[nH]1	-0.8	0	3.0	4.0	0.77	0.3	-6%
CCC(=O)Nc1cccc(NC(=O)CSc2nnc(C3CC3)n2C)c1	-0.4	2	2.6	-0.1	0.69	0.3	8%
CCOC(=O)Cc1csc(NC(=O)Nc2cccs2)n1	-4.1	36	-3.1	0.9	0.61	-0.4	-6%
Cc1ccc(C(=O)N/N=C/c2cc(C)n(-c3ccc(Br)cc3)c2C)cc1[N+](=O)[O-]	0.2	16	-19	x	x	0.4	4%
COc1ccc(Br)cc1CN(C)CC(=O)Nc1c(Cl)ccc(C)c1Cl	-2.1	16	2.1	-16	0.72	1.5	4%
CNC(=O)CN(c1ccc(C23CC4CC(CC(C4)C2)C3)cc1)S(C)(=O)=O	6.3	-1	-9.7	1.2	0.69	-0.7	20%
